From PubChem BioAssay
RanGTP-Imp inh: inhibitors of RanGTP-importin-beta interaction, primary screen, biochemical, FRET, CFP-Ran, YFP-importin-beta, homogeneous | cell-free CFP-Ran/YFP-importin-beta FRET ratio | inhibition, % (concentration not given with the values) | 300,000 compounds, 1.1% hits | AID 2216;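 active = most replicates above 15%; inconclusive = exactly half above 15%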;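 note: 0% = DMSO wells and 100% = Ran loaded with GDP instead of GTP; wells of about 40 µL received 100 nL stock; the first replicate is given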
Beta2AR agonist: activates human beta-2 adrenergic receptor causing internalization. 340,000 compounds, 0.43% hits. AID 504454. response, % (test concentration not listed). Am2.2-beta2AR cells, FAP receptor internalization, flow cytometry; reference of the scale not given here;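 active = response above a set limit, near 3 SD of response in nonfluorescent compounds, cut at about 42% in these data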;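 note: stock transfer was 100 nL into about 11 µL; a reference agonist was the positive control; negative values mostly stem from fluorescent compounds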
Target sequence (P07550 whole entry, looked up): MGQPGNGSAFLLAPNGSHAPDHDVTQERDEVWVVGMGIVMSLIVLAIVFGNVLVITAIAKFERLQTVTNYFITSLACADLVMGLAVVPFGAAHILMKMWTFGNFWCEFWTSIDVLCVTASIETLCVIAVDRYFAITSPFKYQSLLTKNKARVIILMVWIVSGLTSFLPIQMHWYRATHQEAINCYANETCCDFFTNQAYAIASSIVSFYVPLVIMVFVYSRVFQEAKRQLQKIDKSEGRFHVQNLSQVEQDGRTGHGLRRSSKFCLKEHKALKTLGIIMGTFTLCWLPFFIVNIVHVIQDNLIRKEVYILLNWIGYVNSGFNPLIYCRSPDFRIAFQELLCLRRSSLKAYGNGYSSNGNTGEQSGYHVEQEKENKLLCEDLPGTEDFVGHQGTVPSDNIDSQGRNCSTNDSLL
T cruzi inh: blocks replication of Trypanosoma cruzi; T. cruzi beta-gal in NIH3T3, luminescence, 90 h; inhibition, % (no concentration beside the values); 300,000 compounds, 1.4% hits;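 active = mean inhibition across valid replicates above about 55%, limit read from the data; inconclusive = mean below that limit but half or more replicates reach it; inactive = mean below it, under half of replicates reach it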;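 note: signal also drops with host cell toxicity which is not excluded here; 0% = plate median of DMSO wells and 100% = zero luminescence signal; higher percent means less beta-gal luminescence so fewer parasites; stock transfer was 50 nL into about 50 µL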
Beta apoptosis: blocks beta cell apoptosis. protection from apoptosis, % (no concentration beside the values). INS-1E cytokine-induced death, ATP luminescence, 48 h; percent of positive-control rescue, neutral wells zero. AID 435005. 300,000 compounds, 0.8% hits;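 active = all replicates at 75% or more, or half of them and the mean; inconclusive = half reach 75% but not the mean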;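 note: 0% = cytokine-treated negative control wells and 100% = positive control rescue; higher means more ATP so stronger rescue from cytokine killing; wells of about 40 µL received 100 nL stock; the first replicate is given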
A1 inh: inhibitors of the anti-apoptotic protein A1, read as caspase activation; MEF A1-2A-BIM cells, Caspase-Glo 3/7 luminescence, 3 h; percent of clofoctol response, vehicle zero; caspase activation, % (no concentration beside the values); 330,000 compounds, 0.066% hits;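 active = over half of replicate activation scores above 10%, or exactly half above 10 with the replicate mean above 10; inconclusive = replicate mean below 10 yet half the replicates above 10; inactive = over half of replicates below 10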;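 note: wells of about 30 µL received 50 nL stock; many hits fall short of the cut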
Calb FLC: affects C. albicans growth with fluconazole. C. albicans CaCi-2 (fluconazole-resistant clinical isolate) + fluconazole, Alamar Blue growth, 48 h. growth inhibition, % (no concentration beside the values). 300,000 compounds, 0.57% hits. AID 1979;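 active = most replicates above 75%; inconclusive = exactly half above 75%; inactive = most below 75%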;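 note: all wells also contain fluconazole at 8 µg/ml as a sub-toxic cotreatment; 0% = median of DMSO wells and 100% = median of geldanamycin control wells; wells of about 8 µL received 7.5 nL stock; the first replicate is given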
LANA-H2A inh: blocks KSHV LANA binding to histone H2A/H2B | Q9QR71 | cell-free LANA-H2A/H2B peptide, fluorescence polarization | inhibition, % (test concentration not listed) | 320,000 compounds, 0.6% hits | AID 2629; in the data active = inhibition mostly above about 10%, no sharp cut-off; inactive = mostly below about 6.7%;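 note: stock transfer was 7.5 nL into about 10 µL; 0% = median of vehicle wells and 100% = median of positive control wells; one replicate is shown; the record names a cut of 25% in any replicate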
UCH37 DUB inh: inhibitors of human deubiquitinating enzyme UCH37 | Q9Y5K5 | purified proteasome/UCH37, Ub-AMC cleavage fluorescence | inhibition, % (concentration not given with the values) | 330,000 compounds, 0.33% hits | AID 588478;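 active = mean of two replicates above 20%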;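 note: 0% = compound-free wells with enzyme and 100% = wells lacking proteasome; stock transfer was 100 nL into about 20 µL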
Target sequence (Q9Y5K5 whole entry, looked up): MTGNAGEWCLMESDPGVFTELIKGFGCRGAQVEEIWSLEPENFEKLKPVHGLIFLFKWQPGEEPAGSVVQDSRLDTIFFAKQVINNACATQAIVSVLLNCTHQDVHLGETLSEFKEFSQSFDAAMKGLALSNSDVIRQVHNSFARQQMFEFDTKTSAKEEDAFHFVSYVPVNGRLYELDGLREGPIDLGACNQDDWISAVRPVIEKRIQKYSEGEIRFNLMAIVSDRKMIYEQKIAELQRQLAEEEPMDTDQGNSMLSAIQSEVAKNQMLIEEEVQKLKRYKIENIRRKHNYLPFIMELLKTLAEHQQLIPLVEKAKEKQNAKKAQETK
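system = Proteasome-associated human UCH37 deubiquitinase | amount = 0.15 nM proteasome as dispensed | medium = pH 7.4 Tris-HCl (50 mM) with ovalbumin, ATP-MgCl2, DTT | incubation = 30 min preincubation with enzyme, 25 min cleavage at room temperature | detection = AMC fluorescence 355/460 nm | read-out basis = percent inhibition | controls = no-proteasome and no-compound wells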
Starred values were filed as active, the others as inactive; ? = inconclusive; . = not tested or not shown.

SMILES	RanGTP-Imp inh	Beta2AR agonist	T cruzi inh	Beta apoptosis	A1 inh	Calb FLC	LANA-H2A inh	UCH37 DUB inh
COc1ccc(NC(=O)CN(C)C(=O)c2cc3c(s2)CCCCC3)cc1	-2.8	-8.2	-5.5	1.5	-1.5	-0.2	0.6	4.2
COc1cccc(CN(C)CC(=O)NCc2ccccc2Cl)c1	1.9	11.8	4.6	-7.7	1.1	-23.1	1.8	-0.9
CCCCNC(=O)NS(=O)(=O)c1ccc(NC(=O)CCC(=O)c2cccs2)cc1	0.5	-2.7	0.0	-6.3	0.8	-1.4	6.3	2.7
Cc1cc(C)cc(NC(=O)N2CCNC(=O)C2CC(=O)Nc2cc(Cl)ccc2Cl)c1 (configuration not stated)	-0.7	-1.3	-14.1	-3.3	0.7	12.0	-7.8	5.1
Cc1cc(C)n2nc(SCC(=O)c3cccs3)nc2n1	?	-3.8	-14.5	-2.1	0.3	3.5	1.5	-0.6
CCN(Cc1ccc(NC(C)=O)cc1)CC1CCCN(CCc2cccc(F)c2)C1 (configuration not stated)	-4.0	2.0	47.1	-1.6	0.1	-2.1	0.2	-0.4
CCc1nnc(NC(=O)CN2CCN(c3ccccc3OC)CC2)s1	2.3	-3.7	9.2	-3.0	-0.7	-3.8	-1.7	0.4
Cc1n[nH]c(C)c1S(=O)(=O)N(CC(=O)NC1CCCC1)c1ccc(C(C)C)cc1	4.4	0.5	11.2	1.0	0.3	2.8	0.9	4.8
S=c1[nH]nc(COc2cccc3ccccc23)n1Cc1ccccc1	-1.7	4.5	-9.4	-2.2	1.4	1.0	-5.0	2.2
CSc1ccc(/C=C(\NC(=O)c2ccccc2)C(=O)NN)cc1	3.5	-13.2	-9.3	6.1	-1.1	7.6	4.6	3.4
COC(=O)CN(c1cc([N+](=O)[O-])ccc1OC)S(C)(=O)=O	-0.5	0.8	-22.3	-3.0	0.9	27.3	4.7	4.6
C/C(=N\NC(=O)c1ccncc1)c1cccnc1	?	-0.7	-28.4	-6.8	0.3	10.4	2.0	.
CCOC(=O)C1CCN(S(=O)(=O)c2ccc3c4c(cccc24)C(=O)N3CC)CC1	.	-7.1	.	-1.3	0.2	.	0.6	-223.5
C=CCNC(=O)NC(=O)Cn1c(=O)c2c(ncn2CC)n(Cc2ccccc2)c1=O	0.4	-5.6	-0.4	-7.5	1.1	4.6	1.0	0.9
CCOC(=O)Cc1csc(NC(=O)c2ccc(Cl)s2)n1	?	-1.9	-2.7	6.9	-0.8	-13.6	-7.8	5.4
CCOC(=O)C1=C(CN2CCc3ccccc32)NC(=O)NC1c1ccc(Cl)cc1 (configuration not stated)	-0.2	6.1	23.7	-0.8	0.4	22.0	4.9	1.5
Cc1nnc(NC(=O)CSc2nnnn2Cc2ccccc2)s1	0.2	10.2	-9.2	4.7	0.4	9.5	-1.1	5.1
COC(=O)c1ccccc1NC(=O)CSc1ccc(C)cc1	-3.3	-3.3	-11.6	-10.1	-0.5	0.8	-3.8	-0.7
CCCc1[nH]n(-c2ccc(F)cc2)c(=O)c1C=NCC1CCCO1 (configuration not stated)	5.6	-7.0	-0.1	-1.0	-0.6	5.2	-1.0	5.1
O=C(O)c1cnn(-c2nc(-c3cccc([N+](=O)[O-])c3)cs2)c1C(F)(F)F	1.7	7.7	4.9	4.6	0.3	0.6	0.6	2.9
CCOc1ccc(/C=N/NC(=O)c2cc3c(OC)cc(OC)c(OC)c3[nH]2)cc1	2.1	20.4	1.0	-0.7	0.6	26.9	-3.3	.
COc1ccc(OC)c(NC(=O)NC2CCCc3ccccc32)c1 (configuration not stated)	-1.8	-3.9	4.4	0.3	0.7	11.9	10.1	2.2
COc1ccc(OC)c(CNC(=O)C2CCN(S(C)(=O)=O)CC2)c1	2.0	8.8	0.0	-2.5	0.3	11.7	-5.1	-0.7
Nc1ncnc2c1ncn2[C@@H]1O[C@H](CNCc2ccccc2OCc2ccc(Cl)cc2Cl)[C@@H](O)[C@H]1O	.	4.8	.	4.5	-0.4	.	-4.4	3.6
CC(C)CCN1CCN(Cc2nc3c(s2)CCCC3)CC1CCO (configuration not stated)	0.3	-3.6	37.9	-3.1	1.0	-16.4	0.5	2.5
O=C(Nc1cccc(F)c1)N1CC=C(n2c(=O)[nH]c3ccccc32)CC1	0.0	-4.3	-8.2	3.7	0.4	-2.0	3.3	-4.5
CCOC(=O)[C@H]1[C@H]2COc3ccccc3[C@@H]2N2C(=O)c3ccc(C)cc3NC(=O)[C@@]12C	.	3.6	.	-1.1	0.9	.	3.7	1.8
COc1cccc(C2CC(c3cccc(NS(C)(=O)=O)c3)=NN2C(=O)c2ccccc2)c1OC (configuration not stated)	-0.2	6.2	3.5	-5.8	0.2	-3.6	-0.8	2.3
CCC(C(=O)NCc1cccc(C)c1)n1nc(C)c2c(C)n(-c3ccccc3)nc2c1=O (configuration not stated)	-0.3	-5.3	-3.8	4.6	0.3	-5.4	3.7	-3.3
Cc1ccc(-c2ccc(C(=O)NCc3ccccc3)o2)c2ccccc12	5.3	-6.0	-6.1	-3.9	-0.5	17.8	-1.0	-18.8

The final two entries of the section above open the next one:
SMILES	RanGTP-Imp inh	Beta2AR agonist	T cruzi inh	Beta apoptosis	A1 inh	Calb FLC	LANA-H2A inh	UCH37 DUB inh
CCC(C(=O)NCc1cccc(C)c1)n1nc(C)c2c(C)n(-c3ccccc3)nc2c1=O (configuration not stated)	-0.3	-5.3	-3.8	4.6	0.3	-5.4	3.7	-3.3
Cc1ccc(-c2ccc(C(=O)NCc3ccccc3)o2)c2ccccc12	5.3	-6.0	-6.1	-3.9	-0.5	17.8	-1.0	-18.8
Cc1cc2c(=O)n(Cc3ccco3)c(SCC(=O)N3CCCc4ccccc43)nc2s1	1.7	5.7	24.4	5.2	1.4	2.7	5.6	1.7
CCCCC1CCC(C(=O)NC2CCS(=O)(=O)C2)CC1 (configuration not stated)	-5.3	1.2	19.4	-4.2	-0.3	-4.3	-3.7	4.4
COc1ccc2nc(SCC(N)=O)cc(C)c2c1	1.6	-0.3	1.9	-4.5	0.9	1.1	9.8	-5.2
CCCNS(=O)(=O)c1ccc(-n2cnnn2)c(OC)c1	-1.4	-0.6	-0.2	-0.8	1.2	-21.6	-6.7	-0.1
COc1ccc(-n2c3c(cc(C(=O)NNc4ccccc4)c2=O)C(=O)CC(C)(C)C3)cc1	2.0	-0.1	-4.2	.	0.7	-1.3	2.5	6.7
COC(=O)[C@H]1C[C@@H]1[C@H](N)c1ccccc1	3.8	-5.0	2.2	.	2.0	-10.5	4.3	4.4
Cc1csc(SC(C)C(=O)Nc2ccc3c(c2)OCCO3)n1 (configuration not stated)	?	-10.1	-3.5	-0.5	-0.7	0.4	2.3	4.8
CN(CCCNC(=O)COc1cc(=O)n(C)c2ccccc12)Cc1ccccc1	-0.1	7.8	17.6	1.6	-1.8	-12.1	5.9	1.1
CN(C)c1nc(N2CCN(c3ccc(F)cc3)CC2)c(C#N)c(=O)o1	-0.8	-8.9	12.4	.	.	-0.2	.	1.0
CCOC(=O)N1CCN(C(=O)CSc2nnc(CNC(=O)c3ccccc3F)o2)CC1	1.9	-10.2	-23.3	3.4	0.4	-1.4	-2.6	-1.3
CN1/C(=C\C(=O)C[n+]2cccc(C(N)=O)c2)C(C)(C)c2ccccc21	6.6	-1.8	-27.2	.	0.1	15.9	4.5	16.0
Cc1cc2ccccc2nc1SCC(=O)NC1CCCC1	0.5	2.1	-8.4	.	-0.3	0.5	-4.3	4.9
Cc1ccc(S(=O)(=O)N2CCN(C(=O)CCc3c[nH]c4ccccc34)CC2)c(C)c1	.	9.4	.	1.3	-1.3	.	-3.3	5.3
CCC(=O)OCCNc1cc(Sc2nc3ccccc3s2)c2nonc2c1[N+](=O)[O-]	-0.9	-203.0	45.7	22.3	3.2	0.0	1.7	13.0
Cc1sc2ncnc(NC(C)C(=O)O)c2c1C (configuration not stated)	2.8	4.4	15.9	-1.4	0.2	-3.3	2.1	2.6
COC(=O)Nc1ccc(S(=O)(=O)N2CCCCC2C(=O)NCc2ccco2)cc1 (configuration not stated)	2.0	1.1	-0.2	-5.6	-0.5	-5.1	-2.8	5.2
O=C(CNC(=O)c1ccc(Br)cc1)NC1CC1	.	5.5	.	5.4	4.4	.	3.7	0.1
CCOc1ccc(CN(C(=O)c2cc(=O)c3cc(C)cc(C)c3o2)C2CCS(=O)(=O)C2)cc1 (configuration not stated)	1.7	-13.1	-4.4	10.2	-2.0	-1.8	2.7	4.1
Cc1ccc(CN2CCN(Cc3cn[nH]c3-c3ccccc3)CC2CCO)o1 (configuration not stated)	3.6	-1.8	4.2	-9.8	0.3	-1.2	-0.9	0.2
CC(=O)c1coc2c1cc(O)c1ccccc12	-4.4	7.4	1.5	-0.4	0.2	21.0	1.8	2.0
COc1ccccc1N1CCN(c2nc(C)cc(=O)[nH]2)CC1	2.2	2.8	-3.8	-1.8	0.5	-4.9	-0.7	.
COc1cc2sc3cc(NCc4ccc(C)o4)ccc3c(=O)c2cc1OC	.	2.3	.	0.8	-4.7	.	1.7	-22.3
O=C(c1ccccc1F)N1CCC(O)(c2cccnc2)CC1	-3.8	-2.1	-4.6	-5.0	-0.4	4.0	1.0	1.2
COc1cc(-n2c(N)c(C(=O)NCc3ccco3)c3nc4ccccc4nc32)cc(OC)c1OC	12.3	5.6	-7.7	8.2	-0.2	17.6	7.8	-140.3
COc1ccc(N(C)S(=O)(=O)c2ccc3c(c2)CC(C)N3C(=O)C2CC2)c(OC)c1 (configuration not stated)	-1.5	6.3	-11.2	-1.7	0.6	-3.3	-1.6	2.7
CC(=NC(C)C)C1=C(O)C(C)OC1=O (configuration not stated)	-5.5	6.5	-14.1	-3.0	-0.5	-4.8	-0.2	0.7
Nc1nc(Nc2cccc(F)c2)nc(NCCO)c1[N+](=O)[O-]	3.1	0.7	-14.3	4.8	-0.4	-10.7	-1.8	16.5
CN(Cc1ccccc1)C(=O)CCS(=O)(=O)c1ccc2c(c1)oc(=O)n2C	1.9	-8.9	-2.5	-4.7	0.0	-0.7	5.3	0.9

Some values from above:
COc1ccccc1N1CCN(c2nc(C)cc(=O)[nH]2)CC1 in A1 inh: 0.5
Nc1nc(Nc2cccc(F)c2)nc(NCCO)c1[N+](=O)[O-] in UCH37 DUB inh: 16.5

Entries of single compounds, quoted from the list. Values in the order: RanGTP-Imp inh	Beta2AR agonist	T cruzi inh	Beta apoptosis	A1 inh	Calb FLC	LANA-H2A inh	UCH37 DUB inh
Shown for COc1cc2sc3cc(NCc4ccc(C)o4)ccc3c(=O)c2cc1OC → .	2.3	.	0.8	-4.7	.	1.7	-22.3
Shown for Cc1ccc(CN2CCN(Cc3cn[nH]c3-c3ccccc3)CC2CCO)o1 (configuration not stated) → 3.6	-1.8	4.2	-9.8	0.3	-1.2	-0.9	0.2
